# H5N1 antiviral: MDCK cell protection from H5N1 avian flu. hit rate 0.07% among 96,000. AID 740. cytopathic effect, luminescence, 72 h; hits give high values; no value below 0 was filed and about half of the inactive calls have no number; reference of the scale not given here. inhibition, % at 50 µM; in the data active = inhibition above about 25%
# * hit, by the source's call; i = inactive. Only part of the results is shown; the hit share may differ from the screen's.
SMILES,H5N1 antiviral
OCC12COC(c3ccccc3)N1C(c1ccccc1)OC2 (stereo unspecified),0.2
O=C(Cc1sc(-c2ccccc2Cl)nc1-c1ccccc1)Nc1ccc(F)cc1,i
O=C(NNc1cccc(Cl)n1)c1c(Cl)cccc1Cl,8.7
COc1ccc(Cn2nnnc2CN(Cc2cc3cc(C)ccc3[nH]c2=O)C2CCCC2)cc1,i
O=C(NCc1ccc(N2CCCC2=O)cc1)NC1CCCCC1,i
Cc1c(C#N)c(N=CN(C)C)c(C(=O)c2ccccc2)n1-c1ccccc1,2.2
CCOC(=O)N1CCC(Nc2c(NCCCOC)c(=O)c2=O)CC1,i
CCCc1cc2c(cc1NC(=O)c1ccc(C)cc1)OCO2,0.3
Cc1ccc(-c2cc(C)nc3nc(N)nn23)cc1,0.2
CCN(CCC(=O)Nc1ccc(Br)c(C)c1)Cc1ccccc1,0.6
O=C(Cc1cccc2ccccc12)Nc1ccc(-c2cc3ccccc3oc2=O)cc1,i
Cc1nc2ccccc2cc1OCc1ccc(F)cc1,0.7
O=S(=O)(NCc1cccnc1)c1cccs1,i
CCCN(CCC)CCCNS(=O)(=O)c1ccc2c(c1)oc(=O)n2C,0.7
CCOc1ccc(S(=O)(=O)Nc2ccccn2)c2ccccc12,0.6
Cc1cc(C)n(-c2ccc(C(=O)Nc3nnc(C4CC4)s3)cc2)n1,i
CCOC(=O)c1cc2c(ccn2C)n1CC(=O)N1CCC(Cc2ccccc2)CC1,7.6
CO/N=C(\Cn1ncc(N2CCCC2)c(Cl)c1=O)c1ccc(Cl)cc1,i
O=C(Cn1c(=O)sc2ccccc21)Nc1ccccc1,0.7
CCCOc1ccc2ccccc2c1/C=N/n1c(C)nnc1-n1nc(C)cc1C,1.0
CCOc1cc(C(N)=O)cc(Br)c1OCC,0.9
CN1CCOCCOCCN(C)C1=O,0.1
C=CCn1c(SCc2nc(N)nc(N(C)C)n2)nnc1-c1cccnc1,i
O=C(NC(Cc1ccccc1)c1ccc2c(c1)OCCCO2)c1ccccc1F (stereo unspecified),1.9

# Part of the list above, reformatted.
Cc1cc(C)n(-c2ccc(C(=O)Nc3nnc(C4CC4)s3)cc2)n1
  H5N1 antiviral = i
CCOC(=O)c1cc2c(ccn2C)n1CC(=O)N1CCC(Cc2ccccc2)CC1
  H5N1 antiviral = 7.6
CO/N=C(\Cn1ncc(N2CCCC2)c(Cl)c1=O)c1ccc(Cl)cc1
  H5N1 antiviral = i
O=C(Cn1c(=O)sc2ccccc21)Nc1ccccc1
  H5N1 antiviral = 0.7

# (listing goes on)
SMILES,H5N1 antiviral
Cc1ccc(NCCC(=O)c2ccc(Br)cc2)cc1,i
COCc1[nH]nc2c1C(c1ccc(OC)cc1)C(C#N)=C(N)O2 (stereo unspecified),i
O=C(NCCCn1ccnc1)c1cc(C(=O)C2CC2)c[nH]1,1.7
Nc1nc(N2CCCCC2)nc(N(c2ccccc2)c2ccccc2)n1,1.4
Cc1cc(=O)[nH]c(N2CCN(C(c3ccccc3)c3ccccc3)CC2)n1,0.4
O=C(Nc1ccc(/C=C/c2nc3ccccc3o2)cc1)c1ccc(F)cc1,i
COc1cccc(N(C(=O)c2cccs2)c2nc3ccccc3s2)c1,i
CCOc1cc(/C=N/O)cc(Br)c1OCc1ccc(Cl)cc1,i
COc1ccccc1-c1cc(C(=O)NCCCn2ccnc2)no1,0.9
CC(C)Cn1cnc2sc3c(c2c1=N)CCCC3,1.3
COc1ccc(N2CCN(c3ncnc4c3[nH]c3ccccc34)CC2)cc1,i
C=CCOc1nc2c(c(=O)n(C)c(=O)n2C)n1Cc1c(Cl)cccc1Cl,3.6
CC/C(=C\C(=O)c1cccnc1)Nc1ccc(C)c(C)c1,i
CC(C)(C)C1=Nn2c(nnc2-c2ccco2)SC1,1.8
CC(Sc1ccccc1)C(=O)Nc1ccccc1C(=O)N1CCOCC1 (stereo unspecified),i
C=CCSc1nnc(NC(=O)COc2ccc3ccccc3c2)s1,i
N#Cc1nc(-c2ccco2)oc1N1CCN(c2cccc(Cl)c2)CC1,i
COc1ccccc1NC1=NC2(CCCC2)N=C(N)N1,0.7
CCOC(=O)/C(C#N)=C/c1cc(C)n(-c2ccc(Br)cc2)c1C,0.2
CC(=O)NS(=O)(=O)c1ccc(NC(=S)NC(=O)c2ccco2)cc1,1.1
CCCc1cc(C(=O)NCc2cccs2)no1,0.5
Cc1cnc(C(=O)Nc2ccccc2-c2ccc(C)o2)cn1,i
O=C(CSc1nnc(-c2ccco2)o1)NC1CC2CCC1C2 (stereo unspecified),i
O=C(NNC(=S)Nc1ccccc1)c1ccco1,i
CCCCN1C(=O)C2NN=C(C(=O)OCC)C2C1=O (stereo unspecified),i
CSc1ccccc1NC(=O)c1cnc2n(c1=O)CCS2,2.6
O=C(Nc1ccc2c(c1)OCCO2)C1CCC1,i
CCc1cccc2c(C#N)cn(CCOc3ccccc3OC)c12,1.3
CCN(CC)CC(=O)Nc1nc(-c2ccc(Cl)cc2)cs1,i
COc1ccc(-c2nc3c(c(=O)[nH]c(=O)n3Cc3ccccc3)n2Cc2ccccc2)cc1,3.2
O=C(NCCNC(=O)C1CC2CCC1C2)C1CC2CCC1C2 (stereo unspecified),i
CS(=O)(=O)c1ccc2nc(NC(=O)C3COc4ccccc4O3)sc2c1 (stereo unspecified),1.6
O=C1CN(C(=O)COC(=O)Cc2ccsc2)c2ccccc2N1,i
Cc1ccsc1-c1nc(CSCC(=O)NCc2ccc3c(c2)OCO3)c(C)o1,1.1
CN(C)C(=O)Cn1c(SCC(=O)N2CCCc3ccccc32)nc2ccccc21,i
CN(C)c1nc(Nc2ccccc2)nc(Oc2ccc(=O)[nH]n2)n1,0.7
Cc1cc(C)n(CC(=O)n2nc(C)cc2C)n1,1.6
O=S(=O)(c1cccc(-c2nnc(-c3ccc(Br)cc3)o2)c1)N1CCCCCC1,i
O=C(Cc1ccccc1)Nc1c2c(nn1-c1cccc(Cl)c1)CS(=O)(=O)C2,0.6
Cc1nc(NC(=O)c2ccccc2)sc1-c1csc(NCc2ccco2)n1,i
CCC1(CCc2ccncc2)C(=O)NC(=O)NC1=O,i
CCOC(=O)C1CCN(Cc2nc3ccccc3c(=O)n2-c2ccc(F)cc2)CC1,i
O=c1ccnc(SCn2nnc3ccccc3c2=O)[nH]1,0.4
CCOC(=O)C1=C(C)NC(=O)NC1c1cc(C)sc1C (stereo unspecified),1.5
CCc1c(C)sc(NC(=O)c2ccco2)c1C(=O)N1CCCCC1,1.3
CN(C)S(=O)(=O)c1ccc(C(=O)Oc2ccccc2)cc1,i
O=C(c1ccccc1)c1ccc(CN2C(=O)c3ccccc3C2=O)o1,i
CCCn1c(NCc2ccc(C)o2)nc2ccccc21,3.0
CCCn1cc(S(=O)(=O)CC(=O)N2CCc3ccccc32)c2ccccc21,0.7
CCCCCCN1C(=O)C(O)=C(C(C)=O)C1c1ccc(Cl)cc1 (stereo unspecified),0.5
Cc1cc(C)c2ccc(C)[n+]([O-])c2c1O,i
Cc1ccc(-c2nnn(CC(=O)NCC3COCCO3)n2)o1 (stereo unspecified),i
CCSc1nnc(NC(=O)NCC(F)(F)F)s1,i
COC(=O)CCCC[C@H]1SC[C@H]2NC(=O)N[C@]21O,0.6
Cc1sc2nc(SCC(=O)NCCOCCO)n(C)c(=O)c2c1C,0.7
O=C(CP(=O)(CO)CO)c1ccc(Cl)cc1,i
Cc1cc2cc(C(c3nnnn3C3CCCC3)N(Cc3cccnc3)Cc3ccco3)c(=O)[nH]c2cc1C (stereo unspecified),1.1
COc1ccccc1-c1nc(C#N)c(N2CCN(c3ccccc3)CC2)o1,2.4
CC(=O)C1=C(O)C(=O)N(CCc2c[nH]c3ccccc23)C1c1ccco1 (stereo unspecified),i
O=S(=O)(Nc1ccc2c(c1)OCO2)c1cccs1,0.1

# (more compounds)
SMILES,H5N1 antiviral
CN1CCN(C(=O)c2ccccc2NC(=O)Cc2ccccc2)CC1,0.5
COc1ccc(-c2cc(-c3ccccc3)c(C#N)c(S(C)=O)n2)cc1 (stereo unspecified),i
Cc1ccc(N/N=C/c2c(O)cc(C)oc2=O)cc1,i
O=C(O)C1(NS(=O)(=O)c2ccc(F)c(Cl)c2)CCCCC1,i
CCc1cc2c(NCCC(=O)O)nc(C)nc2s1,i
CCOC(=O)C1CCCN(C(=O)Cn2cnc3c2c(=O)n(C)c(=O)n3C)C1 (stereo unspecified),i
C=CCn1c(SCC(=O)N2CCN(c3ccc(F)cc3)CC2)nnc1-c1ccco1,i
O=C(NCc1ccco1)c1cc(-c2ccccc2)c(N2CCOCC2)s1,2.8
COC(=O)c1ccc(CSc2ncnc3c2oc2ccccc23)o1,1.3
O=C(Cc1cccs1)N(Cc1cccs1)C1(C(=O)NC2CCCCC2)CCCCC1,i
Cc1cccc(NC(=S)c2nc3ccccc3s2)c1,0.1
CN1C(=O)NC(c2ccccc2)C2=C1CN(Cc1ccco1)C2=O (stereo unspecified),i

# Gathered by group: the compounds so far containing a COOH group
SMILES,H5N1 antiviral
O=C(O)C1(NS(=O)(=O)c2ccc(F)c(Cl)c2)CCCCC1,i
CCc1cc2c(NCCC(=O)O)nc(C)nc2s1,i

# More compounds:
SMILES,H5N1 antiviral
O=S(=O)(NCCCc1ccccc1)c1ccccc1,0.1
COC(=O)CCC(=O)c1oc2ccc(Br)cc2c1N,i
Cc1cc(C(=O)CC#N)c(C)n1-c1ccc(OC(F)F)cc1,0.1
Cc1c(N=Cc2ccco2)c(=O)n(-c2ccccc2)n1C,i
COc1cccc(NS(=O)(=O)c2nc3nc(C)cc(C)n3n2)c1,1.9
CCC(=O)N1CCc2cc(S(=O)(=O)Nc3ccc4c(c3)OCCO4)ccc21,i
Cc1cnn(C2CCN(C)CC2)c1N,i
COC(=O)c1ccc(C2Nc3ccc(/C(C)=N/NC(=O)C(OC)c4ccccc4)cc3C3C=CCC32)cc1 (stereo unspecified),i
O=C1c2ccccc2C(=O)C12Cc1ccccc1N1CCN(c3ccccc3)CC12 (stereo unspecified),0.9
Clc1ccc(Cc2noc(CN3CCN(c4ccccc4)CC3)n2)c(Cl)c1,1.4
Cc1cc(C)c(S(=O)(=O)Nc2ccc3c4c(cccc24)CC3)c(C)c1,i
CCN(CC)S(=O)(=O)c1ccc(-c2nnc(SCC(=O)Nc3nnc(C)s3)n2CC)cc1,i
Cc1ccc(OC(C)c2nnc(N)s2)cc1Cl (stereo unspecified),i
CCCCCC(=O)NC(NC(=S)Nc1ccc(S(N)(=O)=O)cc1)C(Cl)(Cl)Cl (stereo unspecified),i
Cc1ccc(C(C)n2cc(C(=O)NCc3cccnc3)nn2)cc1 (stereo unspecified),0.8
Cc1cc(C)nc(N(C#N)CC(=O)N2CCC(C(N)=O)CC2)n1,0.2
COc1ccccc1NC(=O)CNS(=O)(=O)c1ccccc1,i
CCOc1cc(N(CC)CC)ccc1/C=C(/C#N)c1nc2ccccc2[nH]1,i
NCCCCCc1nnc(SCc2ccccc2Cl)o1,i
NCCCSC1=NCCCN1,0.5
C=CCn1c(N)c(C(=O)Nc2ccc(C)cc2)sc1=S,1.0
Cc1ccccc1OCC(O)Cn1c2ccccc2c2ccccc21 (stereo unspecified),i
COCCN(C(=O)Nc1ccccc1)c1ccccc1,i
COc1ccc(CCC(=O)N2CC(C)OC(C)C2)cc1 (stereo unspecified),i
CCOC(=O)c1cnc2c(-c3ccccc3)c(C)nn2c1N,i
COc1ccc2nc(SCC(=O)NN)cc(C)c2c1,i
COc1ccc(S(=O)(=O)Cc2ccccc2)cc1N,i
COCCNC(=O)c1c(N)sc2c1CCCC2,i
CN(C)C(=O)N1CCC(C(=O)NCc2ccc(F)cc2Cl)CC1,0.7
O=C(Cn1ncc2c(=O)oc3ccccc3c21)N1CCN(c2ccccn2)CC1,i
CCN1CCN(Cc2cc(=O)oc3cc(C)cc(C)c23)CC1,i
N#Cc1cnn(Cc2ccccc2)c1N,1.6
CSc1ccccc1C(=O)NCCc1ccc(S(=O)(=O)N2CCCCC2)cc1,1.5
O=C(CSc1ncnc2c1cnn2-c1ccccc1Cl)N1CCN(C(=O)c2ccco2)CC1,i
COCCn1c(=O)[nH]c2cc(C(=O)NCCCN3CCN(c4ccc(F)cc4)CC3)ccc2c1=O,0.7
Cc1cc(Cl)ccc1OCC(=O)OC(C)C(=O)NC(N)=O (stereo unspecified),0.2
CCN(CC)S(=O)(=O)c1cccc(NC(=O)C2SC(=Nc3ccc(C)cc3C)C(C(=O)NC(C)COC)=C2N)c1 (stereo unspecified),6.3
O=C1NC(=O)/C(=C\c2ccccc2Oc2ccc(F)c(F)c2)S1,0.1
Cc1cccc(OCC2=N/C(=C\N(C)C)C(=O)O2)c1,i
CC1CCN(CCCNC(=O)CCCNC(=O)Cn2cnc3sc4c(c3c2=O)CCCC4)CC1,i
COc1ccc(-n2c(C)cc(C(=O)Cn3c(NCCO)nc4ccccc43)c2C)cc1,i
C=CCSC1=C(C#N)C2(CCCCC2)C(C#N)C(=O)N1 (stereo unspecified),0.5
CC(=O)c1cc(F)c(N2CCCC2)cc1C,0.3
CC(=O)c1c(COC(=O)c2cccnc2)nc2ccccc2[n+]1[O-],1.8
CSc1ccc(-c2cc(=O)c3ccccc3o2)cc1,i
COc1ccc(-c2cn3ccsc3n2)cc1,i
CCOCCCNC(=O)C(C)NS(=O)(=O)c1ccc(C)cc1 (stereo unspecified),i
CCOc1ccc(-n2c(SCC(=O)Nc3nccs3)nc3c(c2=O)SCC3)cc1,0.8
CCOC(=O)c1c(C)n(Cc2ccc3c(c2)OCO3)c2ccc(O)cc12,i

# Four of the compounds above, as labelled records:
> COc1ccc(-n2c(C)cc(C(=O)Cn3c(NCCO)nc4ccccc43)c2C)cc1
  H5N1 antiviral = i
> CCOC(=O)c1c(C)n(Cc2ccc3c(c2)OCO3)c2ccc(O)cc12
  H5N1 antiviral = i
> C=CCSC1=C(C#N)C2(CCCCC2)C(C#N)C(=O)N1 (stereo unspecified)
  H5N1 antiviral = 0.5
> CSc1ccc(-c2cc(=O)c3ccccc3o2)cc1
  H5N1 antiviral = i

# High-throughput results as filed in PubChem.
